Screening data from PubChem.
Mtb bLac sens – beta-lactam sensitization of Mtb H37Rv. M. tuberculosis H37Rv growth with meropenem, percent inhibition; hits of this screen are not shown here. inhibition, % at 25 µM. 0.27% of 330,000 active. AID 434955;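 active = about 74% or more and at least 40 points above the plate without the antibiotic, then above 30% in a dose series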;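 note: growth measured after seven days incubation then overnight dye step; 0% = bacteria only wells and 100% = bacteria with antibiotic; twin plates without the antibiotic show which effects depend on it; some results filed as inactive read as strong as hits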
The depositor's hits bear a star. Some of the compounds tested (hit frequency here may not be typical).

SMILES	Mtb bLac sens
CC(C)[N+]1(C)[C@@H]2CC[C@@H]1CC(OC(=O)C(CO)c1ccccc1)C2 (stereo partly drawn)	-4
C[C@H](CO)N1C[C@H](C)[C@@H](CN(C)C(=O)Nc2ccc(C(F)(F)F)cc2)Oc2ccc(NC(=O)Cc3ccccc3)cc2C1=O	-2
CC(=O)c1cccc(NC(=O)/C=C/c2ccc(S(=O)(=O)N3CCOCC3)cc2)c1	-8
CN(C(=O)COC(=O)c1cc2ccccc2cc1O)c1ccccc1	1
COc1ccc(NS(=O)(=O)c2cccc(C(=O)NNC(=O)c3ccc(O)c(Cl)c3)c2)cc1	-3
Cc1noc(C)c1NC(=O)N(C)C[C@H]1Oc2c(NC(=O)C3CCCCC3)cccc2C(=O)N([C@H](C)CO)C[C@@H]1C	2
Cc1cccc(C)c1NC(=O)CN(C)CC(=O)N(C)CC(=O)Nc1ccccc1Br	-2
Cc1ccc(Oc2ccc(OCC(=O)Nc3ccncc3)cc2)cc1	97
CSc1ncccc1C(=O)OCC(=O)NCc1cccs1	-5
C=CCOc1ccc(CN(C)c2ccc(S(=O)(=O)N3CCN(C)CC3)cc2[N+](=O)[O-])cc1	0
Cc1c(NC(=O)COc2ccccc2Cl)c(=O)n(-c2ccccc2)n1C	-2
O=C(NCCC(=O)N(Cc1ccco1)Cc1cccs1)c1ccccc1Cl	-6
CC(C(=O)OCC(=O)N1CCCCC1)N1C(=O)c2ccccc2C1=O (stereo not drawn)	3
Cc1c(C(=O)OCC(=O)NCc2ccco2)oc2ccccc12	1
CCC(=O)c1ccc(OCC(=O)NCC2COc3ccccc3O2)cc1 (stereo not drawn)	-9
COC(=O)c1ccc(C(=O)Nc2ccc(F)cc2)cc1	14
CC(C)NC(=O)Nc1ccc2c(c1)C(=O)N([C@H](C)CO)C[C@H](C)[C@@H](CN(C)C(=O)NC1CCCCC1)O2	0
CCN(Cc1ccc2c(c1)OCO2)C(=O)CSc1nc(C)nc2sc(C)c(C)c12	3
COc1ccc(NC(=O)COC(=O)c2ccc(-n3nc(C)cc3C)cc2)cc1OC	8
NS(=O)(=O)c1ccc(CCNC(=O)C2CC(=O)N(Cc3ccccc3Cl)C2)cc1 (stereo not drawn)	-4
CC12CCC(=O)N1C(C(=O)Nc1nc3ccc(F)cc3s1)CS2 (stereo not drawn)	-8
CCc1ccc(OCC(=O)NNC(=S)NC(=O)C2CCCCC2)c(Br)c1	1
O=C(NN=Cc1ccc(O)cc1O)c1ccccc1NS(=O)(=O)c1cccs1	0
Cc1ccc(S(=O)(=O)N2CCN(C(=O)CN3CCCSc4ccccc43)CC2)cc1	0
COc1ccc(NC(=O)c2ccc(Cl)nc2)cc1S(=O)(=O)N1CCOCC1	-8
Nc1ccc(N2C(=O)c3ccccc3C2=O)c(Cl)c1	-2
Cc1ccc(S(=O)(=O)N2[C@@H](c3ccc(Br)cc3)C(C(=O)O)=CC[C@H]2c2ccc(Cl)c(Cl)c2)cc1	2
CCC(=O)c1ccc(OC(=O)C2CCN(C3=NS(=O)(=O)c4ccccc43)CC2)cc1	-3
COc1ccc(S(=O)(=O)N2CCN(C(=O)c3ccc(NC(C)=O)cc3)CC2)cc1	2
Cc1cccc(NS(=O)(=O)c2ccc(C)c(C(=O)N(C)C)c2)c1	-7
CCN(CC)CCNC(=O)c1ccc(NC(=O)COc2ccc3c(c2)CCC3)cc1	-3
CN(CCOc1ccc(Cl)cc1)Cc1cccc(S(=O)(=O)N(C)C)c1	-2
CC(=O)Nc1ccc(SC[C@H](Cc2ccccc2)N2CC[C@@H](C)CCC2=O)cc1	6
CCOC(=O)c1ccc(-c2c(-c3ccccc3OC)sc3ccc(OC)cc23)cc1F	-2
CCOC(=O)c1cc(C#N)c(SC(C)C(=O)NC2CCCCC2)nc1C (stereo not drawn)	-4
COc1cc([C@H]2Oc3c(OC)cc(CCCO[C@@H]4O[C@H](CO)[C@@H](O)[C@H](O)[C@H]4O)cc3[C@@H]2CO)ccc1O	10
CN(Cc1cccs1)C(=O)c1cccc(S(=O)(=O)N2CCCCCC2)c1	-2
CC1CCC(NC(=O)C2CC(O)CN2S(=O)(=O)c2ccc([N+](=O)[O-])cc2)CC1 (stereo not drawn)	1
Cc1cc(O)ccc1NS(=O)(=O)c1ccc2c3c(cccc13)C(=O)N2	-2
C[C@@H](NC(=O)Cn1ccc(NC(=O)OCc2ccccc2)nc1=O)c1cccc2ccccc12	13
O=C(COC(=O)c1ccc2ncsc2c1)Nc1ccc(Cl)cc1	0
CN(C)S(=O)(=O)c1cccc(NC(=O)c2ccc(NS(=O)(=O)c3cccs3)cc2)c1	6
Cc1occc1C(=O)NNC(=O)c1ccc(S(=O)(=O)N(C)C)cc1	-11
N#Cc1ccc(S(=O)(=O)Nc2ccccc2N2CCOCC2)cc1	5
CC(C)(C)NC(=O)NC(=O)CSc1ccc(S(=O)(=O)N2CCCCC2)cn1	3
CC(C)(C)c1ccc(NC(=O)COC(=O)c2ccc3ncsc3c2)cc1	16
CC1(C)CC2CC(C)(CN2C(=O)COC(=O)c2cccnc2Cl)C1 (stereo not drawn)	-7
CC(C)N(Cc1ccccc1)C(=O)COC(=O)c1c(F)cccc1F	-6
CC(C)(CO)Cc1cc(C(C)(C)C)c(O)c(C(C)(C)C)c1	40
O=C(c1ccccc1)N(C(=O)c1ccccc1)c1ncnc2c1C(c1ccccc1)c1c(ccc3ccccc13)O2 (stereo not drawn)	42
Cc1ccc(NC(=O)CN(C)C(=O)c2ccc(OCc3cn4ccccc4n3)cc2)cc1	3
O=C(Cn1ccc2ccccc2c1=O)NCC(=O)Nc1ccc(F)cc1F	-5
CN(CC(=O)Nc1ccc(F)cc1)C(=O)CNC(=O)C1CCCCC1	-4
Cc1nc(-c2ccc(F)cc2)c(CC(=O)N(C)CC(=O)Nc2ccccc2C(F)(F)F)s1	-1
COc1cc(NC(=O)[C@@H]2CCCN2S(=O)(=O)c2cccc3cccnc23)cc(OC)c1OC	3
O=C(Oc1ccc([N+](=O)[O-])cc1)C1CC(=O)N(c2ccc3c(c2)OCCO3)C1 (stereo not drawn)	0

A different layout for some results above.
> CCc1ccc(OCC(=O)NNC(=S)NC(=O)C2CCCCC2)c(Br)c1
- Mtb bLac sens: 1
> O=C(NN=Cc1ccc(O)cc1O)c1ccccc1NS(=O)(=O)c1cccs1
- Mtb bLac sens: 0
> Cc1ccc(S(=O)(=O)N2CCN(C(=O)CN3CCCSc4ccccc43)CC2)cc1
- Mtb bLac sens: 0
> COc1ccc(NC(=O)c2ccc(Cl)nc2)cc1S(=O)(=O)N1CCOCC1
- Mtb bLac sens: -8

Next section:
SMILES	Mtb bLac sens
CC(NC(=O)COC(=O)Cc1ccc(Cl)cc1)c1ccccc1 (stereo not drawn)	2
CC1CC1C(=O)Nc1nc2ccc(S(C)(=O)=O)cc2s1 (stereo not drawn)	-5
O=C(c1cccc([N+](=O)[O-])c1)c1ccc2[nH]c(=O)[nH]c2c1	9
Cc1cc(C)c(C(=O)Nc2ccc(S(=O)(=O)Nc3ccccn3)cc2)c(C)c1	1
CC(=O)c1c(C)[nH]c(C(=O)COC(=O)COc2ccccc2F)c1C	0
COc1ccc(C2=Nn3c(nnc3-c3ccccc3F)SC2)cc1OC1CCCC1	97
Cc1cc(C(=O)NCc2ccco2)sc1C	14
CC(C)CC1(C)NC(=O)N(CC(=O)N2C(C)CCCC2C)C1=O (stereo not drawn)	-2
Cn1cnc2c1c(=O)n(Cc1ccc(Cl)cc1Cl)c(=O)n2C	-1
CC(=O)c1cccc(NC(=O)C(C)OC(=O)C2=NNC(=O)CC2)c1 (stereo not drawn)	1
CC1CCCC(C)N1C(=O)COC(=O)c1ccccc1O (stereo not drawn)	8
O=C(CN1C(=O)C(=O)N(Cc2ccccc2)C1=O)c1ccc[nH]1	-3
Cc1ccc(S(=O)(=O)c2nc(Cc3ccccc3)oc2N2CCOCC2)cc1	1
CC(OC(=O)c1cccs1)C(=O)NC1CCCCC1C (stereo not drawn)	-13
O=C(CCN1CCOCC1)Nc1ccc(F)cc1	-1
N#CC1(NC(=O)CN2C(=O)NC(Cc3c[nH]c4ccccc34)C2=O)CCCCC1 (stereo not drawn)	-7
CSc1ccc(Cl)c(C(=O)NNC(=O)c2cccs2)c1	-5
CC(NC(=O)c1ccc(Br)o1)c1ccc(-n2ccnc2)cc1 (stereo not drawn)	-2
COC(=O)[C@]1(C)N[C@H](CN(C)C(=O)c2ccc(C(C)(C)C)cc2)[C@@H]2C(=O)N(Cc3ccccc3)C(=O)[C@@H]21	4
CC(=O)NCCc1ccc(C(=O)CSc2nnc(C3CC3)n2C2CC2)cc1	6
CC[C@]12c3[nH]c4ccccc4c3CCN1C(=O)C(CC(=O)NCCc1ccccn1)C[C@@H]2C(=O)N1CCN(C(=O)c2ccco2)CC1 (stereo partly drawn)	-4
Cc1ccc(OCCC(=O)Nc2ccc(S(=O)(=O)Nc3nccs3)cc2)cc1	54
O=C1N[C@@H](Cc2ccccc2)COC(=O)[C@H](Cc2ccc(F)cc2)CC/C=C/C[C@H]1CC(=O)N(CCO)Cc1ccccc1	3
O=C(C1=C(O)C(=O)N(Cc2cccnc2)C1c1cccc(Oc2ccccc2)c1)c1ccco1 (stereo not drawn)	-1

Some of the entries so far, as labelled records:
canonical_smiles: Cc1ccc(OCCC(=O)Nc2ccc(S(=O)(=O)Nc3nccs3)cc2)cc1
  Mtb bLac sens = 54
canonical_smiles: O=C1N[C@@H](Cc2ccccc2)COC(=O)[C@H](Cc2ccc(F)cc2)CC/C=C/C[C@H]1CC(=O)N(CCO)Cc1ccccc1
  Mtb bLac sens = 3
canonical_smiles: COC(=O)[C@]1(C)N[C@H](CN(C)C(=O)c2ccc(C(C)(C)C)cc2)[C@@H]2C(=O)N(Cc3ccccc3)C(=O)[C@@H]21
  Mtb bLac sens = 4

Further compounds.
SMILES	Mtb bLac sens
CNC[C@@H]1Oc2ccc(NS(=O)(=O)c3ccc(Cl)cc3)cc2C(=O)N([C@H](C)CO)C[C@@H]1C	7
CCOC(=O)[C@H]1[C@H]2COc3ccc(Br)cc3[C@@H]2N2C(=O)c3ccc(C)cc3NC(=O)[C@@]12C	10
CC1CCN(C(=O)c2[nH]cnc2C(=O)Nc2nccs2)CC1	-7
O=C(Nc1ccncc1)c1cc(S(=O)(=O)N2CCCC2)ccc1Cl	-6
C=CCN1C(=O)c2ccc(C(=O)NCC(=O)Nc3c(C)cc(C)cc3C)cc2C1=O	-4
O=C(c1ccc(N2CCCC2=O)cc1)N1CCN(c2ccccc2Cl)CC1	9
O=C(COC(=O)CCC(=O)c1cccs1)Nc1ccc(F)c(F)c1F	-5
CCS(=O)(=O)N1Cc2ccccc2CC1C(=O)N(C)CC(=O)Nc1ccc(OC)cc1 (stereo not drawn)	-7
O=C(NC1CC1)c1cccc(NC(=O)c2cnn(-c3ccccc3)n2)c1	1
COc1ccc(CNC(=O)CN(c2ccc(C(C)=O)cc2)S(=O)(=O)c2ccc(C)cc2)cc1OC	4
O=C(CCNC(=O)c1ccc(Br)cc1)NCCCN1CCCC1=O	-6
Cn1c(N)c(C(=O)COC(=O)c2cc3ccccc3cc2O)c(=O)n(C)c1=O	1
O=C(NCc1ccccc1CN1CCCCC1)c1ccccc1N1CCCC1=O	-3
CC1CN(S(=O)(=O)c2cc(C(=O)NCCCN3CCCC3=O)ccc2Cl)CC(C)O1 (stereo not drawn)	1
COc1ccc(-c2coc3cc(OC(C)=O)c(OC)cc3c2=O)cc1	2
CSCC[C@H](NC(=O)C1CCN(S(=O)(=O)c2ccc(C)cc2C)CC1)c1nc2ccccc2[nH]1	-4
Cn1c(N)c(C(=O)COC(=O)/C=C/c2ccc(F)cc2)c(=O)n(C)c1=O	-3
Cc1ccccc1-c1cc(C(=O)NCc2ccc(OC(F)(F)F)cc2)n(CC2CC(c3cccnc3)=NO2)n1 (stereo not drawn)	-1
CCCNC(=O)C(Cc1ccc(C(F)(F)F)cc1)NC(=O)c1ccc2ccccc2n1 (stereo not drawn)	-5
Cc1ccc(NC(=O)CN2C(=O)NC3(CCCCCCC3)C2=O)cc1C	0
O=C(CSc1nnc2ccccn12)NC(=O)c1cccc([N+](=O)[O-])c1	0
O=C(COC(=O)c1ccc(F)cc1Cl)NC1CCCCCCC1	84
O=C(c1ccc(Br)o1)N1CCN(Cc2ccccc2Cl)CC1	-1
CCCc1cc(=O)oc2cc(OCC(=O)N3C[C@H]4C[C@@H](C3)c3cccc(=O)n3C4)ccc12	-10
COc1ccc(-c2ccc(N)cn2)cn1	66
NC(=O)NCC(=O)N1CCN(S(=O)(=O)c2ccc(Cl)s2)CC1	-8
COCCn1c(SCC(=O)Nc2cccnc2Cl)nc2cc(Cl)ccc2c1=O	-2
O=C(/C=C/c1ccco1)N1CCN(S(=O)(=O)c2ccccc2)CC1	-9
O=C(COC(=O)C1CC2CCCC(C1)C2=O)NNC(=O)c1ccccc1Br (stereo not drawn)	-7
CC12CCC(=O)N1C(C(=O)Nc1nc3c(F)cc(F)cc3s1)CS2 (stereo not drawn)	-3
CC(C)NC(=O)N(C)C[C@H]1Oc2c(NS(=O)(=O)c3ccccc3)cccc2C(=O)N([C@H](C)CO)C[C@@H]1C	-8
COc1cccc(NC(=O)COC(=O)C2CC(=O)N(c3ccc(C)cc3)C2)c1 (stereo not drawn)	2
COc1ccc(OCCCN(C)Cc2ccccc2)cc1	0
COc1ccc(S(=O)(=O)N2CCOCC2)cc1NC(=O)CCCOc1ccc(Cl)cc1C	-3
